Source: PubChem (several laboratories)
RGS16-Gao: regulators of human RGS16-Galphao interaction | bead-based flow cytometry RGS16-Galphao binding, fluorescence; actives lie on both sides | AID 1441 | 0.38% of 220,000 active | binding response (% of control), % at 10 µM;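 active = below 25% or above 175%, edge rows of some plates excepted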;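 also: Galphao activated by GDP with aluminum fluoride before binding; 100% = wells without compound and 0% = beads without RGS; some results beyond the cut were filed as inactive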
HSV replic up: increases HSV replication in cells; HSV replication augmentation in cells, fold increase; maximum fold increase; 0.005% of 220,000 active; AID 1956;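 active = peak rise of 1.5-fold or more in the series; inconclusive = self-fluorescent or not available for retest; tested in PC3 cells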;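 also: first round at 10 µM; read as green reporter fluorescence; hits show the peak of a series up to 25 µM; 1 = signal of infected wells without compound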
INS promoter inh: TRM-6 insulin promoter activity inhibition; TRM-6 cells (human fetal islet line), insulin promoter-eGFP reporter, imaging; reporter expression induced with tamoxifen; inhibition, % at 2 µM; 0.9% of 130,000 active;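 active = inhibition above the mean plus 3 SD, with well images judged a real hit on visual review, cut at about 60% in these data, passing the limit was not always enough; inconclusive = inhibition over the cutoff but images rejected on review; inactive = inhibition not above the cutoff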
GALR2 agonist: GALR2 (human) receptor agonism; GALR2-expressing cells, agonist activation read-out; activation, %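 (tested at 5 µM)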; 0.48% of 140,000 active; AID 803;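 active = above mean plus 3 SD of all compounds, about 5% in these data, not always enough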;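 also: 0% = vehicle buffer wells and 100% = reference agonist at full effect; tested in CHO reporter cells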
PKD1 kinase inh: blocks activity of human protein kinase D1. PKD1 kinase fluorescence polarization assay. 0.056% of 200,000 active. inhibition, %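 (about 10 µM by stock and volumes)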. Q15139;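 active = inhibition of 50% or more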;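 also: controls were vehicle for no effect and a reference inhibitor for full effect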
Target sequence (Q15139 whole entry, looked up): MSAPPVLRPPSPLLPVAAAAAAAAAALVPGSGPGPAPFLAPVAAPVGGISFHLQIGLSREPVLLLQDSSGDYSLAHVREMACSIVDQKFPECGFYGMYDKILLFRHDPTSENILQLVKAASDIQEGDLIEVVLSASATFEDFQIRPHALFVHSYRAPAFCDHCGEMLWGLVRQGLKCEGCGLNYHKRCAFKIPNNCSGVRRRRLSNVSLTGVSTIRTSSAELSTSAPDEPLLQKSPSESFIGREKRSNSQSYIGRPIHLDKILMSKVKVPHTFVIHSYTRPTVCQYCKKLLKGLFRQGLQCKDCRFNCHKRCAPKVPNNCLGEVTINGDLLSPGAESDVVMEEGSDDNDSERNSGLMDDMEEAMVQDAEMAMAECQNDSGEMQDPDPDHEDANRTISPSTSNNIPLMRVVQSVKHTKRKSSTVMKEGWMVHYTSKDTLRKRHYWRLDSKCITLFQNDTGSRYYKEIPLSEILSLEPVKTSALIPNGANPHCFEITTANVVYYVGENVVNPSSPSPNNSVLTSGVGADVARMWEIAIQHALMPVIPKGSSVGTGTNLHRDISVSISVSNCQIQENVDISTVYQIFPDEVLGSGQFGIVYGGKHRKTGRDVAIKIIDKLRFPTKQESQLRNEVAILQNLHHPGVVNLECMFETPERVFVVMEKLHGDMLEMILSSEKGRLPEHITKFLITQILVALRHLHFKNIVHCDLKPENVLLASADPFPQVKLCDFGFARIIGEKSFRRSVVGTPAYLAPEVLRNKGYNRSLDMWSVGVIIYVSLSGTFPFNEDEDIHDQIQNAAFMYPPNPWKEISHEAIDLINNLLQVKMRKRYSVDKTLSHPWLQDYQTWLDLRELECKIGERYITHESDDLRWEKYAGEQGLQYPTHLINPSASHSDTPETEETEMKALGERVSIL
INS promoter inh cell count: recorded beside INS promoter inh, whose call it bears; normalized cell count, %; measured here: cell count, toxicity; reference of the scale not given here;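 cells exposed to compound for 48 h; stained nuclei by imaging scaled within each plate; lower means fewer cells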
HSV replic up primary fold: also measured in HSV replic up; calls as there; fold increase; compound at 10 µM; measured here: primary screen fold increase 10 uM; tested in PC3 cells;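 GFP signal in the first replicate; 1 = infected wells without compound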
An asterisk follows results filed as active; i = inactive; ? = inconclusive; · = no result given. Hits appear at their usual frequency. About 1.1% of those tested had a hit in this group.

SMILES,RGS16-Gao,HSV replic up,HSV replic up primary fold,INS promoter inh,INS promoter inh cell count,GALR2 agonist,PKD1 kinase inh
CC(Oc1cccc(Cl)c1)C(=O)Nc1ccc([N+](=O)[O-])cn1 (stereo unspecified),96,i,0.91,3,69,-0.2,-3
COC(=O)c1ccc(CSc2ncnc3c2sc2nc(N4CCOCC4)c4c(c23)CCCC4)o1,·,i,0.55,-23,84,-2.1,0
CCOC(=O)N1CCN(C(=O)Nc2ccc3nc(C)c(C)nc3c2)CC1,94,i,1,43,104,-2.7,1
COc1ccc(C(=O)CSc2cc(C)nc3nc(C)nn23)cc1OC,104,i,1.1,15,66,-0.5,-3
CN(c1ccccc1)S(=O)(=O)c1cccc(NC(=O)CN2CCc3ccccc3C2)c1,98,i,0.86,·,·,·,-4
Clc1nc2nc3n(c2nc1Cl)CCC3,137,i,0.94,·,·,·,·
O=C(O)c1ccc(-c2ccc(/C=N/Nc3ccc([N+](=O)[O-])cc3)o2)cc1,102,?,·,·,·,·,·
CCOC(=O)c1cnc2c(c(C)nn2C)c1Oc1ccccc1F,136,i,1.1,·,·,·,·
Cc1ccc(-c2nc3ccc(C(=O)O)cc3nc2-c2ccc(C)cc2)cc1,102,i,0.95,29,142,0.1,-6
CC1(C)CC(=O)c2c(-c3cccs3)n[nH]c2C1,75,i,0.89,-47,126,0.4,2
COc1cc(C2Nc3ccccc3C(=O)N2c2ccc3c(c2)OCCO3)ccc1OCC(C)C (stereo unspecified),99,i,0.87,-16,143,-2.1,-1
CN(C)c1cccc(N=C2C=C(N3CCOCC3)CC(C)(C)C2)c1,100,i,0.99,-150,129,-2.1,-1
CCN(CC)c1ccc(-c2nn3c(-c4cccnc4)nnc3s2)cc1,104,·,·,-53,103,2.9,-1
CCSc1nnc(NC(=O)C(C)C)s1,100,i,1.1,·,·,-4.0,-7
CCOC(=O)c1cc(C)[nH]c(=O)c1C#N,99,i,0.84,·,·,·,·
O=C1NC(c2cccc([N+](=O)[O-])c2)Oc2ccccc21 (stereo unspecified),104,i,0.94,-6,103,·,6
CCOc1ncccc1C(=O)OCC(=O)Nc1cc(S(=O)(=O)N(CC)CC)ccc1C,96,i,0.91,-47,117,·,-5
COC(=O)c1ccccc1N1C(=O)[C@@H]2C(c3ccc(Br)cc3)=NO[C@@H]2C1=O,98,i,0.86,14,76,-2.6,-5
Cc1ccc2oc(=O)n(CCOc3ccccc3C)c2c1,141,i,1.1,13,93,·,4
N#C/C(=C/c1ccc(Br)o1)C(N)=S,95,i,1.1,·,·,·,·
CNC(=O)CCN(Cc1ccco1)S(=O)(=O)c1ccc(OC)c(OC)c1,99,i,1.1,·,·,·,·
CC(C)N1CCC(N2CCN(CCCc3ccccc3)CC2CCO)CC1 (stereo unspecified),100,i,1,·,·,·,-2
N#CC1=C(Nc2ccccc2Cl)SC(c2ccccc2O)NC1=O (stereo unspecified),97,i,1,·,·,·,·
Cn1c(=O)[nH]c(=O)c2c1nc(N/N=C/C(Br)=C/c1ccccc1)n2CCO,100,i,0.83,·,·,·,·
COC(=O)c1cc(-c2ccc(NC(C)=O)cc2)nc2ccccc12,99,i,0.87,·,·,·,6

Next part (6 carried over from the part before).
SMILES,RGS16-Gao,HSV replic up,HSV replic up primary fold,INS promoter inh,INS promoter inh cell count,GALR2 agonist,PKD1 kinase inh
N#C/C(=C/c1ccc(Br)o1)C(N)=S,95,i,1.1,·,·,·,·
CNC(=O)CCN(Cc1ccco1)S(=O)(=O)c1ccc(OC)c(OC)c1,99,i,1.1,·,·,·,·
CC(C)N1CCC(N2CCN(CCCc3ccccc3)CC2CCO)CC1 (stereo unspecified),100,i,1,·,·,·,-2
N#CC1=C(Nc2ccccc2Cl)SC(c2ccccc2O)NC1=O (stereo unspecified),97,i,1,·,·,·,·
Cn1c(=O)[nH]c(=O)c2c1nc(N/N=C/C(Br)=C/c1ccccc1)n2CCO,100,i,0.83,·,·,·,·
COC(=O)c1cc(-c2ccc(NC(C)=O)cc2)nc2ccccc12,99,i,0.87,·,·,·,6
O=C(CN(C(=O)Cn1nnc(-c2ccccc2F)n1)c1cnc2ccccc2c1)NCC1CCCO1 (stereo unspecified),97,i,0.91,13,77,·,-6
Cc1c(Cl)cccc1NC(=S)NC1CCN(C(C)C)CC1,105,i,0.94,·,·,·,-10
CCOc1ccc(C(=O)Nc2cccc3ncccc23)cc1Br,98,i,0.86,·,·,·,0
COC(=O)c1ccc(N2C(=O)c3cc(N4CCOCC4)c([N+](=O)[O-])cc3C2=O)cc1,100,i,1,·,·,-0.7,-4
CCn1nc(NC(=O)c2ccncc2)c2cc3ccccc3nc21,104,i,0.89,·,·,-0.9,-3
Cn1c(=O)oc2cc(S(=O)(=O)N3CCc4ccccc43)ccc21,101,i,1,·,·,·,·
CC1CCN(CCOCCOc2ccccc2-c2ccccc2)CC1,108,i,0.9,-20,184,-0.6,7
O=C(NCC1CCCO1)C1CCN(c2ccc(S(=O)(=O)N3CCCC3)cc2)CC1 (stereo unspecified),100,i,1.1,-5,143,-3.3,-2
O=C(N/N=C/c1cccc(C(F)(F)F)c1)c1ccc(O)cc1,101,i,0.98,·,·,·,-2
CCOC(=O)C1(Cc2cccc(F)c2)CCN(C(=O)c2ccoc2C)CC1,95,i,0.95,·,·,·,-4
COC(=O)c1nn(-c2ccccc2)c(Sc2ccccc2)c1/C=N/O,94,i,1.1,-39,143,-1.2,3
Cc1ccc(/C=C/c2ccc(=O)n(Cc3ccccc3Cl)n2)cc1,105,i,0.88,43,75,-0.3,-12
Clc1ccc(Cn2cnc3ccccc32)cc1,105,i,1.2,·,·,·,6
O=c1/c(=C\c2cccnc2)sc2nc3ccccc3n12,96,i,0.93,21,67,-5.3,-5
Clc1ccc(-c2nc(/C=N/N3CCOCC3)c3ccccn23)cc1,100,i,0.99,·,·,·,0
COc1ccc(C(=O)N2CCC(C(=O)Nc3ccccc3C)CC2)cc1OC,104,i,0.94,·,·,·,-7
COc1ccc(C(=O)Nc2cc(C(C)=O)c(C)oc2=O)cc1,101,i,0.92,·,·,·,-6
O=C1CCC(C(=O)O)(c2ccccc2)C1 (stereo unspecified),104,i,0.8,·,·,-4.7,-11
Cc1ccc(/C=N/NC(=O)c2cc3c(ccc4ccccc43)o2)cc1[N+](=O)[O-],104,·,·,·,·,-2.2,-2
O=C(/C=C/c1ccc([N+](=O)[O-])cc1)OCC(=O)N1c2ccccc2Sc2ccccc21,82,i,0.98,44,73,-0.9,-8
CC(=O)N1CCN(Cc2nc3cc(NC(=O)c4ccc(F)cc4)ccc3n2C)CC1,87,i,0.99,·,·,·,-5
O=C(NC(=S)NCc1cccnc1)c1cc2ccccc2o1,103,i,0.89,27,106,·,0
COc1ccc(OCC(=O)Nc2ccc3c(c2)nc(CN2CCCC2)n3C)cc1,101,i,0.95,-8,112,0.1,-8
COc1cc(NC(=O)CSc2nncn2C)c(C)cc1[N+](=O)[O-],99,i,0.88,-75,117,·,-2
Cn1c(CNS(=O)(=O)c2ccc(F)cc2)n[nH]c1=S,104,i,0.9,4,87,-2.7,-5

Among those listed so far, these have an NH in an aromatic ring.
SMILES,RGS16-Gao,HSV replic up,HSV replic up primary fold,INS promoter inh,INS promoter inh cell count,GALR2 agonist,PKD1 kinase inh
CC1(C)CC(=O)c2c(-c3cccs3)n[nH]c2C1,75,i,0.89,-47,126,0.4,2
CCOC(=O)c1cc(C)[nH]c(=O)c1C#N,99,i,0.84,·,·,·,·
Cn1c(=O)[nH]c(=O)c2c1nc(N/N=C/C(Br)=C/c1ccccc1)n2CCO,100,i,0.83,·,·,·,·
Cn1c(CNS(=O)(=O)c2ccc(F)cc2)n[nH]c1=S,104,i,0.9,4,87,-2.7,-5

The results go on:
SMILES,RGS16-Gao,HSV replic up,HSV replic up primary fold,INS promoter inh,INS promoter inh cell count,GALR2 agonist,PKD1 kinase inh
O=C(Nc1ncc(Cc2ccccc2)s1)C1COc2ccccc2O1 (stereo unspecified),113,i,0.92,10,41,-0.2,-9
CC(C)CC(=O)Nc1cccc(C(C)O)c1 (stereo unspecified),151,i,0.92,50,95,·,-5
Cc1ccc(NC(=O)CN2C(=O)N/C(=C\c3cccn3-c3cccc(C(=O)O)c3)C2=O)cc1,96,i,0.97,·,·,·,2
CCC(C)(C(=O)NC1CCCCC1)N(C)C(=O)c1ccc2c(c1)OCO2 (stereo unspecified),103,i,0.91,-9,95,-1.3,-6
Cc1c(-c2ccccc2)c(P(=O)(N2CCOCC2)N2CCOCC2)c2ccccn12,96,i,1.1,·,·,-1.7,-9
CC(C)NC(=O)c1cc2nc(-c3ccco3)cc(C(F)(F)F)n2n1,98,i,1.1,-12,103,-0.6,-4
CO/N=C/NC(=O)c1c(OC)ccnc1Oc1cccc(C(F)(F)F)c1,97,i,0.98,22,113,-2.1,-8
CSCCC(NC(=O)/C(=C/c1ccc(F)cc1)NC(C)=O)C(=O)O (stereo unspecified),95,i,0.9,·,·,·,-6
Cc1cccc(OCC(O)CN2CCN(CCN3C(=O)c4cccc5cccc(c45)C3=O)CC2)c1C (stereo unspecified),96,i,0.75,5,98,·,-5
Cc1ccc(-n2c(Cc3cccn3C)nnc2SCC(=O)N2CCN(c3ccccc3)CC2)cc1,92,i,0.78,·,·,0.3,-9
CC(=O)Cn1ncc(N2CCOCC2)c(Br)c1=O,90,i,0.88,-20,88,·,7
COc1ccc(/C=N/NC(=O)CC2N=C(Cc3ccccc3)NNC2=O)cc1OC (stereo unspecified),119,i,0.97,-7,87,-0.4,-14
COc1ccc(O[C@H]2C=C[C@@H](c3ccccc3)O[C@@H]2COC(=O)CCC(C)=NO[C@@H]2O[C@H](COC(C)=O)[C@@H](OC(C)=O)[C@H](OC(C)=O)[C@H]2OC(C)=O)cc1,102,i,1,-5,56,-0.5,-15
O=C(O)CC(NC(=O)C1CCCCC1)c1cc([N+](=O)[O-])ccc1Cl (stereo unspecified),96,i,1,·,·,·,5
CCS(=O)(=O)c1ccc(O)c(NC(=O)NC2CCCCC2)c1,102,i,1,·,·,·,·
O=C(CSC1=NCCS1)Nc1ccc2ccccc2c1,89,i,1,·,·,·,7
c1ccc(-n2ncc(-c3nn[nH]n3)n2)cc1,101,i,1,17,50,-1.0,-3
Cc1nn(C)cc1C1Nc2ccccc2C(=O)N1O (stereo unspecified),110,i,0.84,38,107,-2.2,0
CC1CCN(C(=O)CSc2nc3ccccc3s2)CC1,100,·,·,-123,109,-1.5,-4
COc1ccc(NC(=O)CN(C)C2CCCCC2)cc1Cl,102,i,0.8,·,·,·,·
O=C(NN1C(=O)c2ccccc2NC12CCCCC2)c1ccccc1,102,i,0.99,·,·,·,0
CCOc1cc(CNc2ccc(N3CCN(C(C)=O)CC3)cc2)cc(Br)c1OC,97,i,0.6,0,101,-0.8,-1
C/C(O)=C(/C#N)c1nc2ccccc2[nH]1,102,i,0.85,·,·,-0.8,-8
Cc1snc(SCC(=O)c2ccc(Cl)cc2)c1C#N,99,i,0.84,4,86,-1.8,-10
CC(OC(=O)CCCN1C(=O)c2ccccc2C1=O)C(=O)Nc1ncc(Cl)cc1Cl (stereo unspecified),95,i,1,-57,53,-2.0,-8
Cn1c(C2=C(O)CN(c3ccc4c(c3)OCCO4)C2=N)nc2ccccc21,143,i,0.99,-7,86,-1.1,8
Cc1ccc(NC(=O)NC(=O)CN2C(=O)NC3(CCc4ccccc43)C2=O)c(C)c1 (stereo unspecified),105,i,0.8,·,·,-1.3,-12
O=C(N/N=C/c1ccncc1)c1cc([N+](=O)[O-])cc([N+](=O)[O-])c1O,96,·,·,65,66,-0.3,7
CC1(NC(=O)C23CC4CC(CC(C4)C2)C3)CCS(=O)(=O)C1 (stereo unspecified),101,i,0.99,·,·,-2.1,4
Cc1sc2nc(NCCO)[nH]c(=O)c2c1C,100,i,0.92,·,·,-4.9,2
Cc1ccc2[nH]c(C)c(/C=N/Nc3nc4ccccc4s3)c2c1,93,i,0.73,21,50,-1.5,1
COc1cc(/C=N/NC(=S)NCC2CCCO2)cc(OC)c1OC (stereo unspecified),97,i,0.97,·,·,·,·
